Mtb H37Rv = M. tuberculosis H37Rv growth inhibitors, H37Rv strain (AID 1626). M. tuberculosis H37Rv growth inhibition; higher % means a stronger effect. one-dose inhibition, % at 10 µM; IC50 in µM for titrated hits. hit rate 0.95% among 220,000;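 active means confirmed in a dose series; inconclusive means inhibition above 80% but not taken into the dose series; inactive means below 80% or under 30% at every dose of the series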;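 further: bacteria incubated seven days before Alamar blue readout; 0% = bacteria only wells and 100% = bacteria with antibiotic wells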
Arbovirus anti = arbovirus infection inhibition. inhibition, % at 10 µM. hit rate 0.37% among 200,000. AID 1251. arbovirus infection cell-based antiviral screen;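 active means inhibition from about 30%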;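 further: bluetongue infection of BSR cells; cell survival read as ATP light after 72 h; 0% = infected wells without compound and 100% = uninfected wells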
Mtb bLac sens = beta-lactam sensitization of Mtb H37Rv. hit rate 0.27% among 330,000. inhibition, % at 25 µM. M. tuberculosis H37Rv growth with meropenem, percent inhibition; hits of this screen are not shown here;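 active means about 74% or more and at least 40 points above the plate without the antibiotic, then above 30% in a dose series; inconclusive means first-round hits that could not be retested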;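 further: growth measured after seven days incubation then overnight dye step; 0% = bacteria only wells and 100% = bacteria with antibiotic; twin plates without the antibiotic show which effects depend on it; some results filed as inactive read as strong as hits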
RecA intein inh = inhibitors of M. tuberculosis RecA intein splicing. cell-free RecA intein splicing, fluorescence. inhibition, %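 (about 9 µM by stock and volumes)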. hit rate 0.75% among 290,000. P9WHJ3; in the data active means inhibition above about 30%; inconclusive means no clear call, values can overlap the other calls;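 further: 0% = vehicle wells and 100% = reference inhibitor control wells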
Target sequence (P9WHJ3 whole entry, looked up): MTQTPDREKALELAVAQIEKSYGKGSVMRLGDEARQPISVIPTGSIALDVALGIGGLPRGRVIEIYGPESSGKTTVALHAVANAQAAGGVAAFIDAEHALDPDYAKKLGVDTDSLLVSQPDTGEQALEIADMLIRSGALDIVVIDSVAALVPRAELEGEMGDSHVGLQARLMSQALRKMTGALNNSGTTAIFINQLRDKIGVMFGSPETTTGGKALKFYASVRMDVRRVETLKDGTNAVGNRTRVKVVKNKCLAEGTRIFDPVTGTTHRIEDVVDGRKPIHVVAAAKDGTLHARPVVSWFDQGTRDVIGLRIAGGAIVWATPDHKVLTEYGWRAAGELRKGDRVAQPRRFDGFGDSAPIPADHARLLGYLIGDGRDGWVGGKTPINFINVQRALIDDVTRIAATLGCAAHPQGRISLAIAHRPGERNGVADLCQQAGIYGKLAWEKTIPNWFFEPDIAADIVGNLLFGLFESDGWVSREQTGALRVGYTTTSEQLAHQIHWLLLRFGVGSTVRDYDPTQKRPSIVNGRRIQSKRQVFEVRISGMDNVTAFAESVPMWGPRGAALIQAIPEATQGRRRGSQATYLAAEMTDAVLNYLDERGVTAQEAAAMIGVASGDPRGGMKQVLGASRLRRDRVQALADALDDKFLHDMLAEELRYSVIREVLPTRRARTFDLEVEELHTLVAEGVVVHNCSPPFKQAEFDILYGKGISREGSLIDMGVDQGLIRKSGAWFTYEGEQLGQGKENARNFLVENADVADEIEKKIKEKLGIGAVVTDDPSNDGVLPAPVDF
YopH PTP inh = blocks Yersinia enterocolitica YopH tyrosine phosphatase; fluorescence Ex485/Em525; inhibition, %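 (about 10 µM by stock and volumes)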; hit rate 0.16% among 140,000;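 active means inhibition of 50% or more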;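 further: controls were vehicle for no effect and minimum signal wells for full effect; inactives centre near -20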
Arbovirus anti repeat = second read-out of Arbovirus anti, no call of its own (marks repeat the call); inhibition, %; measured here: 10K subset replicate screen; many hits read low in the repeat;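 first of two repeat runs on a subset; 0% = infected and 100% = uninfected wells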
* = called active by the depositor; ? = inconclusive; nt = not tested or not shown. A portion of the library; count on the stated rates, not on these rows.

SMILES	Mtb H37Rv	Arbovirus anti	Mtb bLac sens	RecA intein inh	YopH PTP inh	others
CCCn1c(SCC(=O)Nc2cccc(S(=O)(=O)N3CCCC3)c2)n[nH]c1=O	-3%	11	-6	-1.6	nt
Cc1ccc(-c2nc(COC(=O)c3c(C)noc3C)cs2)cc1	-5%	9	4	2.9	-34
Cc1ccc(NC(=O)COc2ccccc2)cc1Cl	nt	nt	94	4.1	nt
S=c1[nH]nc(C2CCCCC2)n1/N=C/c1ccc(Br)s1	10%	-4	9	0.9	-42
Nc1nnc(SCC(=O)NC2CCCCC2)n1-c1ccccc1	0%	1	-1	1.2	-25
CC1CCCC(NC(=O)COC(=O)c2sc3ccccc3c2Cl)C1C (stereo not given)	7.5µM*	-2	-6	1.7	-20
CCOc1ccc(-n2c(C)cc(/C=C3/C(=N)N4C(=NC3=O)SN=C4S(C)(=O)=O)c2C)cc1	4%	42*	3	-5.3	nt
O=C(NCc1ccco1)C1(c2ccc(Br)cc2)CCCC1	10%	-4	38	6.1	-10
CC(NS(=O)(=O)c1ccc2c(c1)C(C)(C)C(=O)N2C)c1ccccc1 (stereo not given)	nt	nt	?	0.3	nt
C/C(=N\NC(=O)c1c(Cl)cnn1C)c1cccc(NC(=O)c2ccc(C)cc2)c1	nt	nt	-10	-0.6	nt
Cc1ccc(S(=O)(=O)NCCSc2ncccn2)cc1	10%	-2	8	-1.4	nt
Cc1cc(OC(=O)c2ccc(Cl)cc2Cl)c([N+](=O)[O-])c(=O)[nH]1	nt	nt	3	0.8	nt
Cc1ccc(S(=O)(=O)Nc2ccnc3ccccc23)cc1	8%	10	-2	-2.5	-25
Cc1ccc(C2=NS(=O)(=O)N(C)C(C(=O)Nc3cc(C)n(CC(=O)N4CCCCC4)n3)=C2)cc1	nt	nt	-1	-3.4	nt
CN(C)c1ccc(/C=C2\C(=N)N3C(=NC2=O)Sc2cc(S(C)(=O)=O)ccc23)cc1	1%	nt	5	-1.5	nt
COc1ccc(Cl)cc1S(=O)(=O)N1CCN=C1Cc1ccccc1	nt	nt	1	0.1	nt
CSc1nc(NS(=O)(=O)c2cc(Br)ccc2Br)cc(=O)[nH]1	nt	nt	1	1.0	nt
O=c1cc(O)nc(-c2ccccc2)s1	5%	7	-4	nt	nt
CCCCC(CCC(=O)Nc1nccs1)C(=O)O (stereo not given)	-7%	-1	3	-0.6	-20
COc1ccc(CCC(=O)NNC(=O)Cn2nc(C)cc2C)cc1	nt	nt	-8	3.4	nt
CCCCCCCCCOC(=O)C[n+]1csc(CCO)c1C	0%	8	-7	-1.0	-12
O=C(COC(=O)c1ncc(Cl)c(Cl)c1Cl)NNC(=O)c1ccccc1	nt	nt	-7	-0.2	nt
O=C(COC(=O)CCC(=O)c1ccc(F)cc1)Nc1nnc(-c2ccccc2)o1	nt	nt	51	0.1	nt
CC(N=Cc1cccc(O)c1O)c1ccccc1 (stereo not given)	0%	-7	-9	2.9	17
COc1ccc(C(C)N2CC34C=CC(O3)C(C(=O)OCC(C)C)C4C2=O)cc1 (stereo not given)	-9%	1	nt	-1.1	-13	Arbovirus anti repeat=6
COCCn1c(=O)[nH]c(=O)c2c1nc(-c1ccc(-c3ccc(Cl)cc3[N+](=O)[O-])o1)n2Cc1ccccc1	13%	-21	8	2.9	-8
Cc1nc2cc(F)ccc2n1C1CCN(Cc2nnnn2CCc2ccccc2)CC1	-6%	10	-3	1.9	-37
CCOc1ccc(/C=N/NC(=O)c2cc(-c3ccco3)nc3ccccc23)cc1	-4%	-1	11	0.7	-13
O=C(O)/C=C/c1cn(Cc2ccccc2)nc1-c1cccnc1	-1%	nt	-3	-1.0	nt
NS(=O)(=O)c1ccc(CNC(=O)c2sccc2-c2ccccc2)cc1	nt	nt	-14	-0.5	nt
O=c1[nH]c(=O)n(-c2ccccc2)c(O)c1/C=C1/C(c2ccccc2)=Nc2ccccc21	1%	-14	5	2.7	-32
CC(CCc1ccccc1)NC(=O)CN1C(=O)NC2(CCCCC2)C1=O (stereo not given)	4%	5	3	-0.5	nt
CC1CCN(c2cc(N3CCOCC3)c([N+](=O)[O-])cc2F)CC1	-2%	8	-9	9.5	-31
CCn1ccnc1[C@@H]1C[C@H]2CN(Cc3ccccc3OC)C(=O)[C@]23CCCN13	-2%	2	-6	2.0	nt
COc1ccc(-c2csc(NC(=S)NC(=O)c3ccc(S(=O)(=O)N(C)C)cc3)n2)cc1OC	nt	nt	-11	0.0	nt
O=C(COc1ccccc1[N+](=O)[O-])Nc1ccccc1N1CCCC1	2%	-16	9	2.4	nt

6 structures from above, sorted by formula weight, smallest number first.
SMILES	Mtb H37Rv	Arbovirus anti	Mtb bLac sens	RecA intein inh	YopH PTP inh	others
O=C(COc1ccccc1[N+](=O)[O-])Nc1ccccc1N1CCCC1	2%	-16	9	2.4	nt
CC(CCc1ccccc1)NC(=O)CN1C(=O)NC2(CCCCC2)C1=O (stereo not given)	4%	5	3	-0.5	nt
NS(=O)(=O)c1ccc(CNC(=O)c2sccc2-c2ccccc2)cc1	nt	nt	-14	-0.5	nt
COc1ccc(C(C)N2CC34C=CC(O3)C(C(=O)OCC(C)C)C4C2=O)cc1 (stereo not given)	-9%	1	nt	-1.1	-13	Arbovirus anti repeat=6
Cc1nc2cc(F)ccc2n1C1CCN(Cc2nnnn2CCc2ccccc2)CC1	-6%	10	-3	1.9	-37
COc1ccc(-c2csc(NC(=S)NC(=O)c3ccc(S(=O)(=O)N(C)C)cc3)n2)cc1OC	nt	nt	-11	0.0	nt

More compounds follow.
SMILES	Mtb H37Rv	Arbovirus anti	Mtb bLac sens	RecA intein inh	YopH PTP inh	others
Cc1cccc(NC(=O)Cc2nnc(NC(=O)Nc3ccccc3F)s2)c1	-16%	-9	-3	4.7	nt
C=CCN(CC(=O)NCC1CCCO1)C(=O)CCC(=O)Nc1cc(C)on1 (stereo not given)	-6%	-4	-11	nt	-23
COc1ccc(CCNC(=O)CCS(=O)(=O)c2ccc(C)cc2)cc1OC	-4%	-8	-12	1.1	-13
COc1cccc(CSc2nnnn2-c2ccc(O)cc2)c1	5%	8	-3	2.2	nt
CCOC(=O)N1CCC(NC(=O)c2ccc3c(c2)N(C)C(=O)/C(=C/c2cccc(OC)c2)S3)CC1	nt	nt	5	-3.8	nt
COc1ccc(CN2CCC(n3nccc3NC(=O)C3CC3)CC2)cc1O	nt	nt	-2	-4.0	nt
COc1ccc(N(CC(=O)NCc2ccc(F)cc2)C(=O)CCC(=O)Nc2ccccn2)cc1	nt	nt	-12	1.9	nt
COC(=O)c1ccccc1NC(=O)c1cc(C2CC2)on1	4%	8	7	-1.3	-5	Arbovirus anti repeat=4
C=CCN(c1ccc(C(=O)Nc2cccc([N+](=O)[O-])c2)cc1)S(C)(=O)=O	-4%	-12	-4	-1.5	nt
Cc1ccc(N(C(=O)c2csnn2)C(C(=O)NCc2ccccc2)c2cccnc2)cc1 (stereo not given)	nt	nt	-2	0.3	nt
COc1ccc(-c2[nH]ncc2CN(C)CCN2CCOCC2)cc1F	5%	6	-8	nt	nt
CN(Cc1cccs1)C(=O)Cc1csc(-c2ccccc2)n1	3%	2	3	nt	nt
Cc1ccc2c(c1)nnn2C1CCN(CC(=O)NCCc2nc3ccccc3[nH]2)CC1	-11%	3	-10	0.2	-40
O=C1CCN(C(=O)CCCn2c(=O)oc3ccccc32)CC1	8%	8	12	-2.4	nt
O=C(O)C1CC(=O)N(CCc2ccccc2)C1 (stereo not given)	-5%	0	-8	0.8	-20
COc1ccc(-c2noc(CCC(=O)NCCCN3CCC(Cc4ccccc4)CC3)n2)cc1	11%	-25	6	3.0	-15
CC(C)N1CCC(N2CCN(Cc3cc(F)ccc3-n3cccn3)CC2CCO)CC1 (stereo not given)	-5%	6	-8	-2.5	nt
CC(=O)c1cc(CN2CCN(C3CCN(C(C)C)CC3)C(CCO)C2)cs1 (stereo not given)	2%	3	-6	1.2	nt
C/C(=N\NC(=O)c1cc(-c2ccccn2)nc2ccccc12)c1cccc([N+](=O)[O-])c1	4%	-11	-8	0.5	nt
Cc1cc(=O)n2nc(N3CCCC(C(=O)N4CCOCC4)C3)sc2n1 (stereo not given)	41%	-2	-12	nt	-25
COC1CCN(Cc2c(C(=O)N3CCc4ccccc4C3)nc3ccc(Cl)cn23)CC1	nt	nt	?	4.4	nt
COc1ccc(CNC(=O)c2ccc(NC(=O)C3CCCO3)cc2)cc1 (stereo not given)	-5%	10	-4	2.7	-48	Arbovirus anti repeat=14
CCOc1ccc2ccccc2c1/C=N/NC(=O)CNC(=O)c1ccccc1F	nt	nt	-1	-0.8	nt
COc1cc(/C=N/Nc2nc(N3CCCC3)nc(N3CCCC3)n2)ccc1O	-3%	10	nt	-3.1	-7
Cc1ccc(NC(=O)CSc2nnc(COc3ccc(C#N)cc3)n2-c2ccccc2)cc1C	-2%	-2	-1	-0.8	-12
CC(C)(O)c1ccc2c(c1)CCC1C(C)(C(=O)O)CCCC21C (stereo not given)	11%	nt	-1	nt	nt
Cc1ccc(CN2CCN(Cc3ccc(OC(C)C)cc3)CC2CCO)o1 (stereo not given)	-3%	-12	-2	0.0	nt
Cc1ccc(C(C)C)c(OCCNC(=S)Nc2cccc3ccccc23)c1	2%	-17	?	7.6	-6
CCOC(=O)CC1=NC(=O)CS1	-3%	-2	-7	0.7	-19
O=C(C1CCN(S(=O)(=O)c2cccc3nsnc23)CC1)N1CCCc2ccccc21	-2%	-4	-4	3.7	-15
CC(C)C(NS(=O)(=O)c1cccc(C(F)(F)F)c1)C(=O)O (stereo not given)	-2%	nt	-4	1.6	nt
CCN1C(=O)CC2(C[N+]3(C)CCC2CC3)C1=O (stereo not given)	6%	8	3	-0.6	0
C/C(Cl)=C/Cn1c(NCCCn2ccnc2)nc2c1c(=O)[nH]c(=O)n2C	1%	9	-4	0.4	-125
Cc1c(C(=O)NCCN2C(=O)S/C(=C\c3cccs3)C2=O)cccc1[N+](=O)[O-]	-2%	-10	8	-2.0	-27
COc1ccc(N(CC(=O)NCCSC2CCCCC2)S(C)(=O)=O)c(OC)c1	-8%	17	-2	-0.3	-10
O=C(CSc1nccc(=O)[nH]1)NC1CCCC1	nt	nt	2	-1.6	nt
CN(C)c1ccc(C(C[N+](=O)[O-])c2c(N)n(C)c(=O)n(C)c2=O)c(F)c1C#N (stereo not given)	nt	nt	100	-0.9	nt
Cc1ccc(NC2CCCN(C(=O)c3ccccc3N3CCOCC3)C2)cc1C (stereo not given)	nt	nt	0	-3.7	nt
Cc1nnc2sc(-c3ccc(NC(=O)CSc4ccc(Cl)cc4)cc3)nn12	-4%	2	-9	0.8	1
Cc1cccc2c1-c1sc(C(=O)Nc3ccccc3N3CCN(C)CC3)cc1CO2	?	nt	100	0.3	nt
CC(C)CN(CCNC(=O)CN1C(=O)COc2ccc(S(=O)(=O)N3CCOCC3)cc21)CC(C)C	nt	nt	2	-1.1	nt
O=[N+]([O-])c1ccc(N2CCN(CCO)CC2)c2ncccc12	-9%	-4	7	-8.0	-36
COc1cccc(NS(=O)(=O)c2ccc(S(=O)(=O)N3CCOCC3)cc2)c1	2%	-1	4	-7.3	-8
COc1ccc(/C=N/n2nnnc2N)c(OC)c1	nt	nt	-7	-3.2	nt
Cn1c(=O)c2c(Nc3ccc(F)cc3)cc(=O)n(-c3ccccc3)c2n(C)c1=O	-3%	nt	-1	-1.3	nt
CC(=O)NS(=O)(=O)c1ccc(NC(=O)CN2C(=O)C3C4C=CC(C4)C3C2=O)cc1 (stereo not given)	-7%	-2	-4	-0.6	-20
CCOCCCN(C(=O)Cn1nnc2ccccc21)C(C(=O)NCc1ccco1)c1ccncc1 (stereo not given)	-2%	4	nt	-0.3	-40
COc1ccc(S(=O)(=O)NC(C)(C)C)cc1-c1nnc2c3ccccc3c(C)nn12	-3%	-3	-2	-1.4	-10
CCN1C(=O)N/C(=C/c2ccc(C)o2)C1=O	3%	1	3	-3.2	-15
O=C(Nc1cccc(-c2nc3ncccc3o2)c1)c1ccco1	1%	11	-10	-4.7	-13
COc1ccc(C2CC(c3cccs3)=NN2C(=O)CSc2nc(=O)n3cc(C)ccc3n2)cc1 (stereo not given)	nt	nt	-2	4.5	nt
Cc1ccc2nc(SCC(=O)N3CCCCCC3)nc(=O)n2c1	nt	nt	-11	-2.5	nt
COc1ccccc1N1C(=O)C2C3CC(c4ccccc4)C(C3)C2C1=O (stereo not given)	1%	4	6	-0.2	-26
COCCN(Cc1cc2cc(C)c(C)cc2nc1Cl)C(=O)N1CCOCC1	8%	12	-3	-0.9	nt
CCOC(=O)c1c(SC)[nH]c2c(Cl)cccc2c1=O	-3%	nt	-1	0.8	nt
CC(C)N1C(=O)C2C(C(=O)NCc3ccccc3)C3C=CC2(O3)C1C(=O)NC(C)(C)C (stereo not given)	-12%	5	-3	-3.2	-23
CN(C)c1nc2n(c(=O)n1)CCO2	-2%	2	-1	-1.3	-38

Source: PubChem
